# Screens deposited in PubChem BioAssay by National Center for Advancing Translational Sciences (NCATS).
# VACV mCherry inh – inhibitors of vaccinia virus infection (mCherry reporter signal). Vaccinia virus mCherry reporter infection, fluorescence; about a quarter of the inactives have no number. Potency, µM (titrated, usually from 36.5 µM), for inactives: at the highest dose activity change, negative = inhibition, most hits filed as inhibitors. 310,000 compounds, 0.63% hits. AID 720579; active = well fitted inhibition curve with a large enough effect; inconclusive = small, poorly fitted or top-dose-only effect; inactive = no such curve, though single readings can be large or run the other way; tested in A549 cells; note: nearly all actives have a fitted effect of over 35% in size; inactives centre near -10
# Vaccinia Venus – vaccinia inhibition (Venus reporter). Potency, µM (doses to about 36.5 µM), for the others: top-dose activity change, negative = inhibition, most hits filed as inhibitors. 330,000 compounds, 0.46% hits. Vaccinia virus Venus reporter expression, fluorescence; active means well fitted inhibition curve with a large enough effect; inconclusive means small, poorly fitted or top-dose-only effect; inactive means no such curve, though single readings can be large or run the other way; tested in A549 cells; note: nearly all actives have a fitted effect of over 30% in size; inactives centre near -10
# * marks the source's active call; other numbers are inactive results; i = inactive; ? = inconclusive; · = no result given; & = joins results of further samples; [ ] = remark or other dose. % is set by controls: 0 for no effect and ±100 for the full control effect; potency is the fitted concentration of half-maximal effect. No enrichment for hits; overall some 0.86% were active at least once.
# Results follow in this order: VACV mCherry inh, Vaccinia Venus
> CCC(C)NC(=O)c1cn(CC)c2ccc(S(=O)(=O)N3CCc4ccccc4C3)cc2c1=O (stereo not drawn)
    -29%, -22%
> CCOC(=O)N1CCC(NC(=O)c2ccc3c(c2)N(Cc2ccccc2)C(=O)c2ccccc2S3(=O)=O)CC1
    -17%, -17%
> CC(=O)Nc1ccc(S(=O)(=O)NCCCN2CCOCC2)cc1
    -2%, -6%
> COC(=O)c1ccccc1NC(=O)N1CCN(S(C)(=O)=O)CC1
    4%, -2%
> COc1ccc(NC(=O)CN2CCCN(S(=O)(=O)c3ccc(F)cc3)CC2)c(OC)c1
    -3%, -6%
> COc1cc(OC)c2c(=O)cc(-c3ccccc3)oc2c1
    -6%, 3%
> O=C(O)c1ccc(/C=N/n2c(C3CCCCC3)n[nH]c2=S)cc1
    i, -3%
> COc1ccc(CNC(=O)C2CCN(S(=O)(=O)c3ccc(Br)s3)CC2)cc1
    -20%, -8%
> CCN(C(=O)CSc1nnc(-c2ccccc2)n1C)C1CCS(=O)(=O)C1 (stereo not drawn)
    i, -6%
> COCC(C)NC(=O)C1CCN(S(=O)(=O)c2ccc3ccccc3c2)CC1 (stereo not drawn)
    -20%, -27%
> COc1cc2c(cc1OC)C(COc1ccc3c(C)cc(=O)oc3c1)N(C(=O)c1ccccc1C)CC2 (stereo not drawn)
    -1%, -7%
> Cc1cc(Cl)ccc1C(=O)C1CCCN(C(=O)c2ccc3ncccc3c2)C1 (stereo not drawn)
    -16%, -16%
> O=C1Nc2cccc3c2N(CCC3)C2=C1CCC2
    -9%, 2%
> CC(C)(C)[C@@H]1COC(=O)[C@H](Cc2ccc(F)cc2)CC/C=C\C[C@@H](CC(=O)NCCO)C(=O)N1
    -5%, -13%
> COC(=O)CCCC1=CC2=C(c3ccccc3)C(=O)C(C)(OC(=O)C3CCCC3)C(=O)C2=CN1C1CC1 (stereo not drawn)
    -5%, -8%

# Another view of some results above:
molecule | VACV mCherry inh | Vaccinia Venus
CC(=O)Nc1ccc(S(=O)(=O)NCCCN2CCOCC2)cc1 | -2% | -6%
COc1ccc(NC(=O)CN2CCCN(S(=O)(=O)c3ccc(F)cc3)CC2)c(OC)c1 | -3% | -6%
CC(C)(C)[C@@H]1COC(=O)[C@H](Cc2ccc(F)cc2)CC/C=C\C[C@@H](CC(=O)NCCO)C(=O)N1 | -5% | -13%
Cc1cc(Cl)ccc1C(=O)C1CCCN(C(=O)c2ccc3ncccc3c2)C1 (stereo not drawn) | -16% | -16%
COC(=O)CCCC1=CC2=C(c3ccccc3)C(=O)C(C)(OC(=O)C3CCCC3)C(=O)C2=CN1C1CC1 (stereo not drawn) | -5% | -8%
CCN(C(=O)CSc1nnc(-c2ccccc2)n1C)C1CCS(=O)(=O)C1 (stereo not drawn) | i | -6%

# Carrying on.
# Results follow in this order: VACV mCherry inh, Vaccinia Venus
> COc1cccc(CN(C)C(=O)C2CCC(=O)N(Cc3cccc(F)c3)C2)c1 (stereo not drawn)
    -13%, -10%
> N#Cc1c(N)nc2c(c1-c1ccc(Br)s1)CCCC2
    -19%, -10%
> O=C(N/N=C/c1cc([N+](=O)[O-])ccc1O)NC12CC3CC(CC(C3)C1)C2
    -25%, -18%
> CC(=O)c1ccc(OC(=O)C2CSC3(C)CCC(=O)N23)cc1 (stereo not drawn)
    -6%, -9%
> O=[N+]([O-])c1cccc(S(=O)(=O)NCC2CC3CCC2C3)c1 (stereo not drawn)
    i, -6%
> Cc1ccc(C)c(OCCC(=O)NNC(=O)Cn2nc(C)cc2C)c1
    i, -11%
> COc1ccc(NS(=O)(=O)c2cc(NC(=O)Cc3cccs3)ccc2C)cc1
    -4%, 2%
> COCCNC(=O)C(c1ccc(OC)cc1)N(C(=O)Cn1nnc2ccccc21)c1cccnc1 (stereo not drawn)
    -20%, -7%
> O=C(CNC(=O)c1ccco1)Nc1ccc(F)cc1
    -4%, -8%
> CCOC(=O)C12CC1/C(=N\O)c1ccccc1O2 (stereo not drawn)
    -11%, -7%
> Cc1ccc(-c2noc(CNC(=O)c3ccccc3)n2)cc1
    -7%, -15%
> CC(=O)c1cccc(NC(=O)c2cnn3ccccc23)c1
    -17%, -11%
> Cc1nc(CN2CCN(C(=O)NC3(c4ccccc4)CC3)CC2)cs1
    -7%, -13%
> COc1ccccc1CNc1nc(NCCOc2ccccc2Cl)c2sccc2n1
    ?, ?
> N#Cc1nc(COc2ccccc2F)oc1NCCc1ccccc1
    -23%, -9%
> O=P(Cc1ccccc1O)(c1ccccc1)c1ccccc1
    -12%, 2%
> Cc1ccc2c(c1)C(=O)CC1(CCC(C(C)(C)C)CC1)O2 (stereo not drawn)
    -2%, -6%
> Cc1ccc(C(=O)CN(CCC(=O)O)C(=O)c2ccncc2)cc1
    i, -10%
> CCCc1cc(C(=O)N/N=C/c2cccn2C)cs1
    0%, -9%
> COc1cc(NS(=O)(=O)c2ccc(NC(=S)NC(=O)/C=C/c3ccc(OC)c(OC)c3)cc2)ncn1
    -2%, -15%
> CCOc1ccccc1NC(=O)CSc1nc2c([nH]c3ccccc32)c(=O)n1-c1ccccc1
    -16%, -11%
> Cc1ccccc1Nc1nc(N)nc(COC(=O)CCC(=O)c2ccc(F)cc2)n1
    -5%, 0%
> CSCC[C@H](NC(=O)OC(C)(C)C)C(=O)N/N=C/c1c(C)[nH]c(=O)[nH]c1=O
    i, -3%
> O=C1CC(C(=O)O)S/C(=N\N=C\c2ccc(Br)cc2)N1 (stereo not drawn)
    -6%[7.34 µM], -13%[7.34 µM]
> CC(C)(C)c1cc(NC(=O)c2cccs2)no1
    -18%, -18%
> Cc1ccc(NC(=O)CN(C)S(=O)(=O)c2cccs2)cc1C
    -26%, -19%
> O=C(COC(=O)c1cccs1)NCc1ccccc1
    -26%[1.46 µM], 1%
> COc1ccc(NC(=O)NS(=O)(=O)c2ccc(C)cc2)c(OC)c1
    -6%, -2%
> N=C(SC1CC(=O)N(c2ccc(F)cc2)C1=O)N1N=C(c2ccccc2)CC1c1ccccc1 (stereo not drawn)
    -2%, -14%
> CC1=C(C(=O)OC2CCCCCC2)C(c2cccc(F)c2F)CC(=O)N1 (stereo not drawn)
    -5%, -11%

# Rewritten in CSV form: part of the list above.
SMILES,VACV mCherry inh,Vaccinia Venus
O=P(Cc1ccccc1O)(c1ccccc1)c1ccccc1,-12%,2%
Cc1ccc2c(c1)C(=O)CC1(CCC(C(C)(C)C)CC1)O2 (stereo not drawn),-2%,-6%
Cc1ccc(C(=O)CN(CCC(=O)O)C(=O)c2ccncc2)cc1,i,-10%
CCCc1cc(C(=O)N/N=C/c2cccn2C)cs1,0%,-9%

# The listing continues.
# Results follow in this order: VACV mCherry inh, Vaccinia Venus
> CN1C(=O)C(=Cc2ccccc2OS(=O)(=O)c2ccccc2)C(=O)N(C)C1=O
    -4%, -24%
> Oc1c(C=C2N=c3ccccc3=N2)sc(=S)n1C1CCCCC1
    i, -5%&-1%
> COCCN1CCN(Cc2nc(C3(c4ccc(C)cc4)CCCC3)no2)CC1
    i, -11%
> Cc1ccc(N2CCN(S(=O)(=O)N3CCCCC3)CC2)cc1Cl
    i, -18%
> O=C(Nc1ccc(Cl)c(Cl)c1)c1ccccc1NC(=O)C1CC=CCC1C(=O)O (stereo not drawn)
    i, -6%
> Cn1c(SCC(=O)NC2CCCc3ccccc32)nnc1C1CC1 (stereo not drawn)
    -10%, -12%
> COc1cc([N+](=O)[O-])ccc1NC(=O)CN1CCc2cc(OC)c(OC)cc2C1
    -5%, -4%
> CN(C)c1ccc(C(=S)N2CCNCC2)cc1
    -6%, -6%
> COc1ccccc1CNC(=O)c1cc(-c2ccncc2)nc2c(Cl)cccc12
    -17%, -2%
> C=CCNC(=S)N1Cc2cc(Br)ccc2-n2nncc2C1
    19%, -3%
> CC(=O)Nc1ccc(NC(=O)C2Cc3c(-c4ccco4)ccnc3O2)cc1 (stereo not drawn)
    10%, -8%
> COc1ccc(OC(=O)c2c(C)nn(-c3ccccc3)c2C)cc1
    i, -19%
> CCNC(=S)N=Nc1c(O)n(Cc2ccc(Cl)cc2)c2ccccc12
    -16%, -14%
> CC(C)OC(=O)C1OC1(C)c1ccccc1 (stereo not drawn)
    -9%, -9%
> O=S(=O)(Oc1ccccc1)c1ccc(Cl)c(Cl)c1
    ?, 4%
> CC1CCC(=O)N(CCOc2ccccc2)CC1 (stereo not drawn)
    i, -1%
> Cc1nc(-c2ccc(NS(=O)(=O)c3ccccc3)cc2)cs1
    i, -22%
> COc1ccc(CNCC(=O)Nc2sccc2C#N)cc1
    -2%, -10%
> O=C(Nc1ccc2nc(SCC(=O)N3CCOCC3)sc2c1)c1ccc(F)cc1
    -11%, -19%
> COc1ccc(NC(=O)CSc2nc(-c3ccc(F)cc3)[nH]c2-c2ccc(C)cc2)cc1OC
    -18%, -23%
> N#Cc1cccc(N=c2ssnc2Cl)c1
    -12%, 5%
> COc1cccc(CNCCO)c1OCc1ccccc1Cl
    -16%, -12%
> CCN(Cc1ccccc1)CC(O)COC(c1ccc(OC)cc1)c1ccc(OC)cc1 (stereo not drawn)
    -23%, -15%
> CC(c1ccco1)N(C(=O)COc1ccc(Cl)cc1Cl)c1ccccn1 (stereo not drawn)
    -9%, -7%
> CCc1cc(C(=O)N2CCN(c3ccccc3OC)CC2)sc1C
    ?, ?
> CCn1c(=O)cc(N2CCN(Cc3ccccc3)CC2)[nH]c1=O
    i, -11%
> CN(C)CCSc1nnc2[nH]c3ccccc3c2n1
    i, -1%
> Cc1nn2c(-c3ccccc3)c(-c3ccccc3)nc2[nH]c1=O
    ·, -13%
> Cc1ccccc1OCCC(=O)OCC(=O)NC1CCCC1
    i, -6%
> CCOC(=O)C1CCN(C(=O)c2cc3sc(C)cc3n2C)CC1
    -15%, -13%
> COc1cc2c3c(c1OC)Oc1ccc(cc1)C[C@H]1c4c(cc(OC)c(OC)c4Oc4ccc(cc4)C[C@@H]3N(C)CC2)CCN1C
    -26%, -29%
> COC(=O)c1ccc(C(=O)N2CCCCCC2(C)C(=O)NC(C)C)cc1 (stereo not drawn)
    13%, -3%
> COc1cccc(NC(=O)Cn2cc3c(n2)CCCCC3)c1
    -4%, 5%
> COCCCNC(=O)Cn1cnc2c(OCc3ccccc3)ncnc21
    i, -11%
> Cc1cc(C)n(C(=O)CNC(=O)/C=C/c2ccccc2)n1
    0%, -8%
> O=C(CC1CCCC1)NCCS(=O)(=O)N1CCN(c2ccccc2)CC1
    i, -21%
> O=C(NC12CC3CC(CC(C3)C1)C2)OCCNC1CCCCC1
    -6%, -9%
> O=C(c1ccc2c(c1)N(Cc1ccc(F)cc1)C(=O)c1ccccc1S2(=O)=O)N1CCC(Cc2ccccc2)CC1
    -20%, -10%
> CCC(O)c1nc2ccccc2n1Cc1cccc(Cl)c1 (stereo not drawn)
    -13%, -8%
> CC(C)Cn1cnc2c1c(=O)n(CC(=O)Nc1ccc3c(c1)OCO3)c(=O)n2Cc1ccccc1
    -28%, -20%
> COc1ccc(CNCCC(c2ccc(F)cc2)c2ccc(OC(C)C)cc2)cc1OC (stereo not drawn)
    ?, ?
> CC(C)(C)c1cc(-c2n[nH]c(=S)n2-c2ccccc2F)n[nH]1
    ?, -15%[7.34 µM]
> CN(N=O)c1ccc(CC2CCc3ccccc32)cc1 (stereo not drawn)
    i, 7%
> COCON1C(=O)CN(C(C)=O)C1c1ccc(Cl)cc1Cl (stereo not drawn)
    ·, -27%
> COc1ccc(C(=O)N2CCCC(c3nc(-c4cc(OC)c(OC)c(OC)c4)no3)C2)cc1 (stereo not drawn)
    -29%, -12%
> Cc1ccc(C(C#N)N2CCOCC2)cc1 (stereo not drawn)
    -1%, 9%
> COc1cc(C(F)(F)F)nc2ccc(C#CCOC(=O)Nc3ccccc3)cc12
    i, 5%
> O=C(O)CCSc1ccc2ccccc2n1
    -6%, -18%
> COC(=O)[C@@]1(Cc2ccc(F)cc2)[C@H]2c3cc(C(=O)N4CCCC4)n(Cc4ccc(C)c(F)c4F)c3C[C@H]2CN1C(=O)c1ccccc1
    -22%, ?
> C#Cc1cccc(NC(=O)Cc2cccs2)c1
    -10%, ?
> O=C(COc1ccc(F)cc1)N1c2ccccc2CCc2ccccc21
    i, 0%
> CCOC(=O)c1ccc(NC(=O)NC2CC3CCC(C2)N3C(=S)NC)cc1 (stereo not drawn)
    -15%, -10%
> Cc1ncc(CO)c(/C=N/NC(=O)c2cccc(S(=O)(=O)N3CCCC3)c2)c1O
    -13%, -8%
> CCOC(=O)C1CCCN(C(=O)c2cc3nc(-c4cccc(OC)c4)cc(C(F)(F)F)n3n2)C1 (stereo not drawn)
    -13%, -11%
> CCCCCC(C)NC(=S)NC(=O)c1cc(S(=O)(=O)N2CCOCC2)ccc1C (stereo not drawn)
    -18%, ?
> O=C1c2ccccc2-n2nnnc2C2c3ccccc3-n3nncc3CN12 (stereo not drawn)
    i, 12%
> O=C(/C=C/c1ccc(S(=O)(=O)N2CCOCC2)cc1)Nc1ccc(F)c(F)c1F
    -7%, -23%
> CCOc1ccccc1N1CC(c2nc3ccccc3n2Cc2c(C)cc(C)cc2C)CC1=O (stereo not drawn)
    -6%, 4%
> CCN(CC(=O)Nc1ccc(NC(C)=O)cc1)C(=O)CCN1C(=O)C2CC=CCC2C1=O (stereo not drawn)
    i, 3%
> CCC(=O)NNc1nc2c(C)cc(C)cc2s1
    -13%, -11%
